# Screening results as filed in PubChem.
# RecA intein inh = Mtb RecA intein splicing inhibitors, primary screen, biochemical, fluorescence, HTS | Protein RecA (Mycobacterium tuberculosis (strain ATCC 25618 / H37Rv)), P9WHJ3 | cell-free RecA intein splicing | inhibition, %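 (about 9 µM by stock and volumes)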 | hit rate 0.75% among 290,000; in the data active = inhibition above about 30%; inconclusive = no clear call, values can overlap the other calls;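 also: 0% = vehicle wells and 100% = reference inhibitor control wells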
# Target sequence (P9WHJ3 whole entry, looked up): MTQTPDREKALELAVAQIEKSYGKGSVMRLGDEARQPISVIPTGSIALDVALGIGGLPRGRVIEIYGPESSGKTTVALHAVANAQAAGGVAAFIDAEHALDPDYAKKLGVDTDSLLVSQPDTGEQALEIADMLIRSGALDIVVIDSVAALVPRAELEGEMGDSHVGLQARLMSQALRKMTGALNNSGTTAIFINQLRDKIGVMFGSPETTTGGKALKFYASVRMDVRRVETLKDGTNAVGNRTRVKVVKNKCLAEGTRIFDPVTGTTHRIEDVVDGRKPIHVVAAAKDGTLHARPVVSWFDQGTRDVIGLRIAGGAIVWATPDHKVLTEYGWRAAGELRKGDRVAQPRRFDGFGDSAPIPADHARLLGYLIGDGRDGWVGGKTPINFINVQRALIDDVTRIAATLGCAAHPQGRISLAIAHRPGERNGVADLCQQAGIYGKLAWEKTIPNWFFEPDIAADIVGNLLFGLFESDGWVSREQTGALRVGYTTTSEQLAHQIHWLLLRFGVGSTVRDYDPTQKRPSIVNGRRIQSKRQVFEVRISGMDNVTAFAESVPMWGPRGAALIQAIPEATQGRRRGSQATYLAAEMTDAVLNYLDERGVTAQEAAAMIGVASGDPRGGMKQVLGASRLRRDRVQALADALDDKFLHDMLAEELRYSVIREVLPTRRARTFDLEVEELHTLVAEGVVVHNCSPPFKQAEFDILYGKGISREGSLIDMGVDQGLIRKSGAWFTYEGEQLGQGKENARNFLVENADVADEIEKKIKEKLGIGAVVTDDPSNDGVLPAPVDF
# Arbovirus inh = antivirals against arbovirus infection, primary screen, cell-based, full library, 10K replicate subset. hit rate 0.37% among 200,000. arbovirus infection cell-based antiviral screen. inhibition, % at 10 µM;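 active = inhibition from about 30%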;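 also: bluetongue infection of BSR cells; cell survival read as ATP light after 72 h; 0% = infected wells without compound and 100% = uninfected wells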
# Mtb H37Rv = M. tuberculosis H37Rv growth inhibitors, H37Rv strain (AID 1626). M. tuberculosis H37Rv growth inhibition; higher % means a stronger effect. inhibition, % at 10 µM, or IC50 in µM where a hit was titrated. hit rate 0.95% among 220,000;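 active = confirmed in a dose series; inconclusive = inhibition above 80% but not taken into the dose series; inactive = below 80% or under 30% at every dose of the series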;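 also: bacteria incubated seven days before Alamar blue readout; 0% = bacteria only wells and 100% = bacteria with antibiotic wells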
# YopH PTP inh = YopH tyrosine phosphatase inhibitors, primary screen, biochemical, fluorescence Ex485/Em525. AID 898, 2007. YopH tyrosine phosphatase [Yersinia enterocolitica]. hit rate 0.16% among 140,000. inhibition, %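 (about 10 µM by stock and volumes)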;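 active = inhibition of 50% or more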;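 also: controls were vehicle for no effect and minimum signal wells for full effect; inactives centre near -20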
# Mtb bLac sens = beta-lactam sensitization of Mtb H37Rv, H37Rv; inhibition, % at 25 µM; M. tuberculosis H37Rv growth with meropenem, percent inhibition; hits of this screen are not shown here; hit rate 0.27% among 330,000;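 active = about 74% or more and at least 40 points above the plate without the antibiotic, then above 30% in a dose series; inconclusive = first-round hits that could not be retested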;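 also: growth measured after seven days incubation then overnight dye step; 0% = bacteria only wells and 100% = bacteria with antibiotic; twin plates without the antibiotic show which effects depend on it; some results filed as inactive read as strong as hits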
# Arbovirus inh repeat = further read-out of Arbovirus inh, marked with its call; inhibition, %; measured here: 10K subset replicate screen; many hits read low in the repeat;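 first of two repeat runs on a subset; 0% = infected and 100% = uninfected wells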
# * = called active by the depositor; ? = inconclusive; · = no result given.
SMILES,RecA intein inh,Arbovirus inh,Mtb H37Rv,YopH PTP inh,Mtb bLac sens,others
CC(C)C[C@H]1CN=C(Nc2ccccc2)N1CC1CCCCC1,-0.9,·,·,·,-3,
C=C1SC(=Nc2c(C)cccc2Cl)N(C(=O)c2sc3ccccc3c2Cl)C12CCCCC2,1.7,·,-3%,·,5,
CCCc1n[nH]c(=O)c2c1nnn2Cc1ccccc1,-0.5,·,·,·,-1,
Cc1[nH]c(C)c(S(=O)(=O)N2CCN(c3ccccc3)CC2)c1C(=O)N1CCCC1,-0.9,·,·,·,13,
CCN1CCCC1CN(Cc1cc2ccc(C)cc2[nH]c1=O)C(=S)Nc1ccccc1OC (stereo not given),-0.6,-1,-13%,-45,1,
CC(=O)Nc1ccc(/C=C2\Sc3ccccc3C2=O)cc1,2.5,·,-7%,·,0,
CC1CCCCN1C(=S)NCc1ccco1 (stereo not given),7.1,7,-1%,·,-12,
CC(=O)NC12CC3CC(C1)CC(C(=O)N1CCN(S(=O)(=O)c4ccc(Cl)s4)CC1)(C3)C2,-10,·,·,·,5,
CCOC(=O)c1[nH]c(C)c(C(=O)O)c1C,·,5,-2%,-10,·,
CCCCCCCCNC(=O)/C(C#N)=C/c1ccccc1[N+](=O)[O-],42*,-37,8%,-46,6,
CCOC(=O)Cc1csc(SCC(=O)N(CC(C)C)c2c(N)n(Cc3ccccc3)c(=O)[nH]c2=O)n1,-1.1,·,·,·,-8,
Cc1nc2ccccc2c(=O)n1NC(=O)c1ccccc1,-1.6,·,·,·,-1,
CCc1cc(=O)oc2cc(C)cc(OC(C)C(=O)NC(Cc3c[nH]c4ccc(O)cc34)C(=O)O)c12 (stereo not given),0.6,·,·,·,-9,
O=C(NCCC1CCCCN1S(=O)(=O)c1ccccc1)C(=O)NC1CC1 (stereo not given),-1.5,·,·,·,0,
COc1ccc(C2CC(c3ccccc3)=NN2c2ccc(Cl)c(C(=O)O)c2)cc1 (stereo not given),-129,22,6%,·,5,

# Part of the list above in order of count of non-hydrogen atoms, rising:
SMILES,RecA intein inh,Arbovirus inh,Mtb H37Rv,YopH PTP inh,Mtb bLac sens,others
Cc1nc2ccccc2c(=O)n1NC(=O)c1ccccc1,-1.6,·,·,·,-1,
CC(C)C[C@H]1CN=C(Nc2ccccc2)N1CC1CCCCC1,-0.9,·,·,·,-3,
CCCCCCCCNC(=O)/C(C#N)=C/c1ccccc1[N+](=O)[O-],42*,-37,8%,-46,6,
O=C(NCCC1CCCCN1S(=O)(=O)c1ccccc1)C(=O)NC1CC1 (stereo not given),-1.5,·,·,·,0,
CC(=O)NC12CC3CC(C1)CC(C(=O)N1CCN(S(=O)(=O)c4ccc(Cl)s4)CC1)(C3)C2,-10,·,·,·,5,
CCN1CCCC1CN(Cc1cc2ccc(C)cc2[nH]c1=O)C(=S)Nc1ccccc1OC (stereo not given),-0.6,-1,-13%,-45,1,
CCc1cc(=O)oc2cc(C)cc(OC(C)C(=O)NC(Cc3c[nH]c4ccc(O)cc34)C(=O)O)c12 (stereo not given),0.6,·,·,·,-9,

# Filtered by structure, those above containing a Cl atom (3)
SMILES,RecA intein inh,Arbovirus inh,Mtb H37Rv,YopH PTP inh,Mtb bLac sens,others
C=C1SC(=Nc2c(C)cccc2Cl)N(C(=O)c2sc3ccccc3c2Cl)C12CCCCC2,1.7,·,-3%,·,5,
CC(=O)NC12CC3CC(C1)CC(C(=O)N1CCN(S(=O)(=O)c4ccc(Cl)s4)CC1)(C3)C2,-10,·,·,·,5,
COc1ccc(C2CC(c3ccccc3)=NN2c2ccc(Cl)c(C(=O)O)c2)cc1 (stereo not given),-129,22,6%,·,5,

# (cont.)
SMILES,RecA intein inh,Arbovirus inh,Mtb H37Rv,YopH PTP inh,Mtb bLac sens,others
c1ccc2c(c1)nc1sccn12,-1.1,2,-1%,-17,-8,
O=C1CC(c2ccccc2)n2nc(NC(=O)C3CCCO3)nc2N1 (stereo not given),4.1,2,-15%,-28,-6,
COc1ccc(-n2c(-c3ccc(Br)cc3)c[n+]3c2CCc2ccccc2-3)cc1,2.9,-22,?,10,96,
CCCC(=O)NC(=S)Nc1cc(-c2nc3ncccc3o2)ccc1C,0.0,·,7%,·,-3,
COc1ccc(NC(=O)C(=O)NCCC2CCCCN2S(=O)(=O)c2ccc(F)cc2)cc1 (stereo not given),-0.1,·,·,·,-7,
CC12CC3(C)CC(C)(C1)CC(C(=O)NC1=NCCS1)(C2)C3,4.1,·,-1%,-34,89,
O=C(Nc1ccc2c(c1)nc1n2CCSC1)c1ccccc1,-4.9,8,-6%,5,-10,
CC(C)Nc1nc(Cl)nc(N(C#N)CN2C(=O)c3ccccc3C2=O)n1,2.2,9,5%,-14,6,
C=C(C)c1cccc(C(C)(C)NC(=O)N2CCCC(C(N)=O)C2)c1 (stereo not given),1.4,-3,-4%,13,2,
CC1CCC2(CC1)NC(=O)N(CC(=O)Nc1cccc(S(=O)(=O)N3CCOCC3)c1)C2=O (stereo not given),0.8,·,-14%,·,-2,
Cc1ccc(S(=O)(=O)CCC(=O)OC(C)C(=O)c2c(C)[nH]c3ccccc23)cc1 (stereo not given),1.7,3,2%,-18,6,
CC(C)CC(=O)Nc1c2c(nn1-c1cccc(Cl)c1)CS(=O)C2 (stereo not given),2.7,·,·,·,8,
O=C(N/N=C/c1ccc(Cl)c([N+](=O)[O-])c1)c1cc(-c2ccccc2)nc2ccccc12,0.2,-2,16%,·,-2,
COc1ccc(S(=O)(=O)N2CCOCC2)cc1NC(=O)CSc1n[nH]c(=O)n1C1CC1,-0.6,2,1%,-19,8,
CC(C)(C)Cc1nnc(NC(=O)c2ccc3c(c2)OCO3)s1,9.9,·,·,·,1,

# Reprinted at random: 2 records from the list, in no set order.
SMILES,RecA intein inh,Arbovirus inh,Mtb H37Rv,YopH PTP inh,Mtb bLac sens,others
CC(C)CC(=O)Nc1c2c(nn1-c1cccc(Cl)c1)CS(=O)C2 (stereo not given),2.7,·,·,·,8,
O=C(Nc1ccc2c(c1)nc1n2CCSC1)c1ccccc1,-4.9,8,-6%,5,-10,

# The main list resumes with the two entries that preceded the break.
SMILES,RecA intein inh,Arbovirus inh,Mtb H37Rv,YopH PTP inh,Mtb bLac sens,others
COc1ccc(S(=O)(=O)N2CCOCC2)cc1NC(=O)CSc1n[nH]c(=O)n1C1CC1,-0.6,2,1%,-19,8,
CC(C)(C)Cc1nnc(NC(=O)c2ccc3c(c2)OCO3)s1,9.9,·,·,·,1,
CCOC(=O)c1cnc(SCc2nc(N)nc(Nc3ccc(OC)cc3)n2)nc1N,0.6,12,-2%,-2,7,
CC(=O)c1cccc(NC(=O)Nc2cc3sccc3n2C)c1,0.6,-3,-5%,-9,0,Arbovirus inh repeat=0
Cc1ccc2cc(CN(Cc3ccco3)C(=O)NC3CCCCC3)c(=O)[nH]c2c1C,-0.2,-30,8%,-16,13,
Cc1ccccc1OCC(=O)OCC(=O)Nc1cc(S(C)(=O)=O)ccc1Cl,-0.9,·,·,·,-1,
Cc1ccc(C(C)C)c(OCC(=O)NN=C(CCl)CCl)c1,0.7,·,-1%,·,-7,
Oc1ccc(/C=N/Nc2cccc3cccnc23)c(O)c1,7.1,-22,3%,-2,9,
O=C(O)CCn1nc(-c2ccc(F)cc2)cc(Cc2ccccc2)c1=O,0.1,·,·,·,1,
CCOC(=O)C1CCN(C(=O)COC(=O)COc2ccccc2OC)CC1,-0.7,3,-10%,-46,-6,
O=[N+]([O-])c1ccccc1S(=O)(=O)NC1CCCC1,2.3,-3,-8%,·,4,
COc1ccc(CCNS(=O)(=O)c2cc3c4c(c2)CC(=O)N4CCC3)cc1,2.9,·,·,·,1,
O=C(CSc1nc(O)c(C2CCCCC2)c(=O)[nH]1)N1CCOCC1,0.5,4,-1%,·,1,
O=c1cc(CSc2nnc(-c3ccccc3)o2)c2ccccc2[nH]1,-1.0,-3,0%,-20,?,Arbovirus inh repeat=-2
CCc1cccc(C)c1NS(=O)(=O)c1c(C)nc2sccn2c1=O,0.2,·,·,·,-4,
C=CCNc1ncnc2c1cnn2-c1ccc(C)cc1C,-0.6,-2,13%,-31,1,
NNc1ccccc1C(F)(F)F,·,-1,0%,·,·,
Cc1ccc2nc(C3CCCN(C(=O)NCc4ccccc4)C3)[nH]c2c1 (stereo not given),0.3,-2,7%,-36,1,
CCOc1cc(N2CCOCC2)c(OCC)cc1NC(=O)COC(=O)c1cc(C)cc(C)c1,·,-7,9%,-23,88,
N#Cc1cccc(CSc2nnc(CCCO)n2-c2ccccc2)c1,-1.1,11,-5%,-35,-4,
c1ccc(-c2ccc3sccc3n2)cc1,0.7,·,-4%,·,5,
O=C(NCCc1nnc2ccc(SCC(=O)N3CCCC3)nn12)c1ccc(F)cc1,-3.3,·,·,·,-7,
C/C(Cl)=C\Cn1c(O)c(N=NC(N)=S)c2ccccc21,3.2,3,3%,·,58,
Cc1ccc(NC(=O)C2CC3CCC2C3)c(Br)c1 (stereo not given),-1.0,·,·,·,96,

# Only part of the results is shown; rates above refer to the full screens.
